RecA splice inh – Mtb RecA intein splicing inhibition; P9WHJ3; cell-free RecA intein splicing, fluorescence; inhibition, %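 (about 9 µM by stock and volumes)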; 290,000 tested, 0.75% active; AID 2221; in the data active = inhibition above about 30%;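 also: 0% = vehicle wells and 100% = reference inhibitor control wells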
Target sequence (P9WHJ3 whole entry, looked up, canonical isoform): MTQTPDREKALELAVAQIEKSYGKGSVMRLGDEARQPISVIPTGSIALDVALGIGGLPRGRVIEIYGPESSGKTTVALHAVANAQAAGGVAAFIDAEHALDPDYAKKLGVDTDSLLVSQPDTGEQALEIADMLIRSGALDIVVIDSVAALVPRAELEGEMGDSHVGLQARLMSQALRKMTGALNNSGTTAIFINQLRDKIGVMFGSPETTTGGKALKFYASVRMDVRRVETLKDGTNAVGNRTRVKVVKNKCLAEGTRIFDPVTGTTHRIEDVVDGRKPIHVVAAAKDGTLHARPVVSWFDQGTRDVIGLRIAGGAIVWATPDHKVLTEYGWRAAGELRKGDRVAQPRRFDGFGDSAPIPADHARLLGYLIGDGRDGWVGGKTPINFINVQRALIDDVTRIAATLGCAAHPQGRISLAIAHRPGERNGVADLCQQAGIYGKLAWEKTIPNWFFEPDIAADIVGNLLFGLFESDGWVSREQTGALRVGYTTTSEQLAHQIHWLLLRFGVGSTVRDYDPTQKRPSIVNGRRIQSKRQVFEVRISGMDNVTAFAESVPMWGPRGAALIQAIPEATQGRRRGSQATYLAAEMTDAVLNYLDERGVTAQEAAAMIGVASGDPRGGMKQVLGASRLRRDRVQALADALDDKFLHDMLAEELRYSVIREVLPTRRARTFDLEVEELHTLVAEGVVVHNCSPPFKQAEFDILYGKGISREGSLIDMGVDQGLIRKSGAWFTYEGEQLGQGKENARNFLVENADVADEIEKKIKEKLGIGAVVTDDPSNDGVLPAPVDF
Mtb bLac sens – beta-lactam sensitization of Mtb H37Rv. 330,000 tested, 0.27% active. inhibition, % at 25 µM. M. tuberculosis H37Rv growth with meropenem, percent inhibition; hits of this screen are not shown here;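 active = about 74% or more and at least 40 points above the plate without the antibiotic, then above 30% in a dose series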;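 also: growth measured after seven days incubation then overnight dye step; 0% = bacteria only wells and 100% = bacteria with antibiotic; twin plates without the antibiotic show which effects depend on it; some results filed as inactive read as strong as hits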
Mtb H37Rv – M. tuberculosis H37Rv growth inhibitors, H37Rv strain (AID 1626); M. tuberculosis H37Rv growth inhibition; higher % means a stronger effect; inhibition, % at 10 µM, or IC50 in µM where a hit was titrated; 220,000 tested, 0.95% active;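 active = confirmed in a dose series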;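 also: bacteria incubated seven days before Alamar blue readout; 0% = bacteria only wells and 100% = bacteria with antibiotic wells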
Arbovirus inh – blocks arbovirus infection | 200,000 tested, 0.37% active | arbovirus infection cell-based antiviral screen | inhibition, % at 10 µM | AID 1251;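 active = inhibition from about 30%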;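 also: bluetongue infection of BSR cells; cell survival read as ATP light after 72 h; 0% = infected wells without compound and 100% = uninfected wells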
YopH inh – YopH (Yersinia) phosphatase inhibition | AID 898 | fluorescence Ex485/Em525 | 140,000 tested, 0.16% active | inhibition, %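 (about 10 µM by stock and volumes)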;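 active = inhibition of 50% or more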;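 also: controls were vehicle for no effect and minimum signal wells for full effect; inactives centre near -20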
Arbovirus inh repeat – recorded beside Arbovirus inh, whose call it bears; inhibition, %; measured here: 10K subset replicate screen; many hits read low in the repeat;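 first of two repeat runs on a subset; 0% = infected and 100% = uninfected wells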
Starred values were filed as active, the others as inactive; / = no result given.

SMILES	RecA splice inh	Mtb bLac sens	Mtb H37Rv	Arbovirus inh	YopH inh	others
COC(=O)c1ccc(C2C(Oc3ccccc3)C(=O)N2CCc2ccc(F)cc2)cc1 (centres undefined)	-0.3	-4	-7%	-6	-48
N/C(Cc1cccc2ccccc12)=N\OC(=O)c1ccc(Br)o1	/	/	4%	-10	/
c1ccc(Cc2nnc3sc(-c4ccncc4)nn23)cc1	10	-7	-9%	5	-23
Cc1sc2ncn(CC(=O)NCCCC(=O)N3CCN(c4ccccc4F)CC3)c(=O)c2c1C	-2.4	0	/	/	/
COCCn1c(=NC(=O)c2nc3ccccc3s2)sc2cc(S(C)(=O)=O)ccc21	0.4	-1	-5%	-12	-22
Clc1ccsc1-c1ccc2ccccc2n1	-1.0	-1	-1%	1	-12
N#C/C(=C\c1cccnc1)C(=O)Nc1ccc(S(N)(=O)=O)cc1	0.6	-2	/	/	/
COc1ccc(C(=O)N/N=C(\C)Cn2cnc([N+](=O)[O-])n2)cc1	-2.4	4	-4%	-3	-8
COC(=O)N/N=C/c1cccnc1	-3.6	1	-1%	-5	-27
S=c1nc2ccccc2c2nc(-c3ccccc3Br)[nH]n12	-1.1	9	/	/	/
Nc1ncnc2nc(SCC(=O)Nc3ccccc3F)[nH]c12	-3.3	8	/	/	/
Cc1oc(-c2ccccc2Cl)nc1CS(=O)CC(=O)NCCc1ccccc1 (centres undefined)	6.0	-12	/	/	/
COc1cc2ncnc(NCc3ccco3)c2cc1OC	1.5	5	4%	-1	/
CC(C)(CO)CN1CCC(n2nccc2NC(=O)C2CCCC2)CC1	-2.1	-21	/	/	/
CN1CCN(CC(=O)c2ccccc2F)CC1	-1.6	-6	/	/	/

6 entries drawn at random from those above:
SMILES	RecA splice inh	Mtb bLac sens	Mtb H37Rv	Arbovirus inh	YopH inh	others
N/C(Cc1cccc2ccccc12)=N\OC(=O)c1ccc(Br)o1	/	/	4%	-10	/
Nc1ncnc2nc(SCC(=O)Nc3ccccc3F)[nH]c12	-3.3	8	/	/	/
COC(=O)c1ccc(C2C(Oc3ccccc3)C(=O)N2CCc2ccc(F)cc2)cc1 (centres undefined)	-0.3	-4	-7%	-6	-48
c1ccc(Cc2nnc3sc(-c4ccncc4)nn23)cc1	10	-7	-9%	5	-23
Clc1ccsc1-c1ccc2ccccc2n1	-1.0	-1	-1%	1	-12
Cc1oc(-c2ccccc2Cl)nc1CS(=O)CC(=O)NCCc1ccccc1 (centres undefined)	6.0	-12	/	/	/

(listing goes on)
SMILES	RecA splice inh	Mtb bLac sens	Mtb H37Rv	Arbovirus inh	YopH inh	others
Cc1cc(C)cc(N(C(=O)CCC(=O)Nc2ccccn2)C(C(=O)NC(C)C)c2ccc(O)cc2)c1 (centres undefined)	2.6	3	5%	-9	/
COC(=O)c1c(-c2snnc2C)n[nH]c1C	0.3	-5	3%	/	/
C=CCN(CC=C)C(=O)C1CC(=O)N(c2ccc(Br)cc2)C1 (centres undefined)	2.6	1	0%	-1	-48
O=C(NCCN1CCCCC1)Nc1ccccc1Cl	1.7	0	/	/	/
COc1cccc(C2c3[nH]c4ccccc4c3C[C@H]3C(=O)N(CCCO)CC(=O)N23)c1OC (some centres undefined)	2.4	-2	/	/	/
CCOC(=O)C1CCN(C(=O)C2CCN(S(=O)(=O)c3cc(Cl)ccc3Cl)CC2)CC1	-0.4	-4	0%	-4	10
CCOCCCNC(=O)CCCn1nc(C)n2c(cc3sccc32)c1=O	-2.3	-1	-4%	5	-43	Arbovirus inh repeat=1
COc1ccc(Cl)cc1NC(=O)COC(=O)C(CC(C)C)N1C(=O)C2CC=CCC2C1=O (centres undefined)	5.0	-3	5%	3	-24
CC1(C)C(=O)Nc2ccccc2N1C(=O)COc1ncnc2c(Cl)cc(Cl)cc12	4.6	-6	2%	7	-5
CCn1c(CC(=O)Nc2ccccc2)n[nH]c1=S	-2.9	-9	-6%	-1	/
CCN1C(=O)C2(C(C#N)=C(N)Oc3cc(C)oc(=O)c32)c2ccccc21 (centres undefined)	-0.5	-8	-8%	-2	0
CNCCC(Oc1ccc(C(F)(F)F)cc1)c1ccccc1 (centres undefined)	1.5	2	-4%	-43	-41
CC(/C=N/NC(=O)CSc1nc2ccccc2n1C)=C\c1ccco1	-0.2	-3	-11%	-15	-25
CC1CCCCN1CCNC(=O)c1ccc2c(c1)N(Cc1ccccc1)C(=O)c1ccccc1S2(=O)=O (centres undefined)	2.3	2	/	/	/
C/C(=N/NC(=O)CN1CCN(Cc2ccccc2Cl)CC1)c1ccncc1	1.6	2	-4%	-1	-15
CC1CCN(S(=O)(=O)c2cccc(C(N)=O)c2)CC1	-2.2	5	8%	5	-30
CCOC(=O)c1c(-c2ccc(C)cc2)csc1NC(=O)CCSc1nnc2ccccn12	2.8	6	0%	3	-46
CNC(=O)CSc1nnc(-c2cccnc2)n1CCc1ccccc1	-1.0	-6	-3%	5	-46
C=Cn1ccnc1P(=S)(c1ccc2c(c1)c1ccccc1n2CC)c1nccn1C=C	/	13	0%	0	-35	Arbovirus inh repeat=-18
CCCCN(C)CCOc1ccccc1OCC	-4.8	-4	1%	-1	-24
CC(C)NC(=O)Cn1cc(C(=O)c2ccccc2F)c2ccccc21	-1.4	-4	-11%	6	-22
Cc1cccc(-n2c(/C=C/c3ccc([N+](=O)[O-])o3)nc3ccccc3c2=O)c1	0.9	8	>100µM*	-13	-16
CC1Cc2nc(SCC(=O)N3CCCC3)n(C)c(=O)c2S1 (centres undefined)	1.3	-5	0%	-4	-30	Arbovirus inh repeat=-1
COc1cc(/C=C/c2ccc3cccc(O)c3n2)cc(Cl)c1OC	1.5	97	/	/	/
CC(C)(C)NC(=O)CN(C(=O)C(=O)Nc1ccc2c(c1)OCCO2)N1CCOCC1	-2.8	5	/	/	/
O=C(Nc1nnc(-c2ccccn2)o1)c1cccc(Br)c1	-0.2	92	12µM*	-14	-23
COC(=O)c1cccc(-n2c(C)cc(C=O)c2C)c1C	0.5	-7	-3%	-2	-8
COc1ccc(-c2cc(C(F)F)n3ncc(C(=O)n4ccnc4C)c3n2)cc1	-14	-2	-4%	-16	-27
Cc1nnc(NC(=O)C2CCN(C(=O)c3ccco3)CC2)s1	2.9	-1	/	/	/
CCCCn1c(C)cc2cc(O)ccc21	0.4	9	3%	-2	-20
CC(C)NC(=O)/C(C#N)=C\c1ccc(N(C)C)o1	-5.5	-5	-3%	-7	/
O=C(Cc1ccc([N+](=O)[O-])cc1)N1N=C(c2ccncc2)CC1(O)C(F)(F)F (centres undefined)	-1.7	-1	4%	2	/
COc1ccccc1OCCC(=O)OCC(=O)Nc1ccc(Br)cc1F	-3.0	-5	-3%	0	/
COC(=O)c1ccccc1NC(=O)C/C(C)=N/NC(=O)Cc1ccc(Cl)cc1	-0.9	14	/	/	/
Cc1nc2ccc(NC(=O)c3cccnc3)cc2s1	/	0	20%	3	/
CCOC(=O)c1c(C)[nH]c(C)c1S(=O)(=O)NCC1CCN(Cc2cccc(Cl)c2)CC1	2.1	13	/	/	/
CCn1cc([N+](=O)[O-])c(C(=O)Nc2ccc(Br)cn2)n1	-6.3	-6	-4%	7	-38
CCCSc1nnc(-c2ccccc2NC(=O)CC)c(=O)[nH]1	-0.8	3	-9%	5	-14
O=C(CCS(=O)(=O)c1cccs1)N1CCCC1	1.0	-2	-5%	2	-43	Arbovirus inh repeat=-2
O=C(NC(=S)NC1C2CC3CC(C2)CC1C3)C12CC3CC(CC(C3)C1)C2 (centres undefined)	6.3	0	1%	-17	-21
Cc1c(Cl)c([N+](=O)[O-])nn1CCCC(=O)Nc1c(Cl)cccc1Cl	-1.6	0	2%	1	-16
Cc1c(C(=O)O)sc2nc(/C=C/c3cccc(O)c3)[nH]c(=O)c12	-3.3	-3	/	/	/
COc1ccccc1N(CC(O)CN(c1ccccc1)S(C)(=O)=O)S(=O)(=O)c1ccccc1 (centres undefined)	-0.4	-5	5%	5	7
Cc1cc(C)c(S(=O)(=O)N2CCCOC2CNC(=O)C(=O)NCCC2=CCCCC2)c(C)c1 (centres undefined)	0.8	0	5%	-5	-18
O=C(Cn1nc(Cl)nc1Cl)c1ccc(F)cc1	9.6	3	/	/	/

3 structures already listed, ordered by formula weight, largest number first:
SMILES	RecA splice inh	Mtb bLac sens	Mtb H37Rv	Arbovirus inh	YopH inh	others
CC(C)(C)NC(=O)CN(C(=O)C(=O)Nc1ccc2c(c1)OCCO2)N1CCOCC1	-2.8	5	/	/	/
COc1ccc(-c2cc(C(F)F)n3ncc(C(=O)n4ccnc4C)c3n2)cc1	-14	-2	-4%	-16	-27
CC(C)NC(=O)/C(C#N)=C\c1ccc(N(C)C)o1	-5.5	-5	-3%	-7	/

Following part:
SMILES	RecA splice inh	Mtb bLac sens	Mtb H37Rv	Arbovirus inh	YopH inh	others
CC(=O)C(C)Oc1ccc2c3c(c(=O)oc2c1)CCCC3 (centres undefined)	-1.1	4	2%	2	-12	Arbovirus inh repeat=0
CC1(C)CC(=O)C=C(Nc2cccc(F)c2)C1	1.2	-1	/	/	/
CCC1Cc2c(nc(N)c3c(N)nc(N4CCCCC4)c(C#N)c23)O1 (centres undefined)	-10	11	-7%	-24	/
NC(N)=N/N=C/c1ccc(OCc2ccccc2Cl)cc1	22	8	40%	-42	-5
CCc1ccc(N2Cc3ccccc3C2)cc1	2.9	66	14%	/	/
CCC(C(=O)NCc1ccco1)n1nc(C)c2c(C)n(-c3ccc(C)cc3)nc2c1=O (centres undefined)	2.6	-6	/	/	/
O=C(Nc1ccc(NC(=S)NC(=O)C(c2ccccc2)c2ccccc2)cc1)c1ccccc1	-0.7	12	76%	/	-36
O=c1c(-c2ccccc2)c(O)c2c(n1-c1ccccc1)CCCC2	2.6	14	11%	12	-34
N#CCc1nn(-c2ccc(Cl)cc2)c(N)c1C#N	-3.0	-2	-12%	0	-42
Cc1cc(=O)oc2c(C(=O)/C=C/c3ccccc3)c(O)ccc12	-5.2	59	10%	-2	-19
O=C(Nc1ccc2ccccc2c1)c1ccccc1O	0.9	0	/	/	/
Cc1ccnc(SC2CC(=O)N(c3ccc(F)cc3)C2=O)n1 (centres undefined)	-3.2	-10	/	/	/
Cn1c(NCCO)nc2c1c(=O)n(Cc1ccc(F)cc1)c(=O)n2C	2.1	-3	/	/	/
COC(=O)c1ccc2[nH]c([C@H](C)O)c([C@H](C)O)c2c1	6.2	58	/	/	/
CN(C(=O)COC(=O)c1ccc2[nH]c3c(c2c1)CCCC3)C1CCS(=O)(=O)C1 (centres undefined)	/	9	4%	18	/
Cc1ccc2cc(C#N)c(N3CCN(C(=O)c4cccs4)CC3)nc2c1	-1.9	7	/	/	/
COc1ccc(N2CCN(C(=O)C3Cc4ccccc4CN3C(=O)c3ccccc3)CC2)cc1 (centres undefined)	3.2	3	1%	9	/
CC(CCN1CCC(n2nccc2NC(=O)c2ccccc2Cl)CC1)c1ccccc1 (centres undefined)	3.4	-10	/	/	/
CC(C)(O)[C@@H]1Cc2c(ccc3ccc(=O)oc23)O1	-4.1	-6	-12%	-4	-42
CNCC(O)COc1ccccc1 (centres undefined)	-0.8	-5	0%	0	-4
COC(=O)c1ccc(CSc2ccccc2C)o1	6.1	9	2%	0	-53
CC1CC(C(=O)Nc2ccccc2)C(=O)O1 (centres undefined)	0.0	-3	/	/	/
COC(CC(=O)NNC(=S)Nc1ccccc1)OC	0.2	6	-3%	5	/
CCc1noc(C)c1C(=O)NCCc1ccc(S(N)(=O)=O)cc1	-0.3	-16	/	/	/
Clc1ccc2c(c1)C(c1ccccc1Cl)=NCc1nncn1-2	-0.7	-1	-6%	-6	-19
COc1ccccc1CC(NC(C)=O)C(=O)NC1CCN(C(=O)Nc2ccc(F)cc2)CC1 (centres undefined)	0.0	-7	/	/	/
Cc1c(NC(=O)C(C)OC(=O)CCC2CCCC2)c(=O)n(-c2ccccc2)n1C (centres undefined)	/	0	1%	19	/
CCOc1cc(C(=O)N2CCCN(C)CC2)cc(OCC)c1OCC	0.4	3	/	/	/
Cc1cc(C(=O)Cn2nnc(-c3ccc(Cl)cc3)n2)c(C)n1-c1ccccc1	4.5	-4	2%	2	-7
CO/N=C/NC(=O)C1=NOC(CNc2ncc(C(F)(F)F)cc2Cl)C1 (centres undefined)	2.1	-10	-15%	-15	-24
CC(=O)Nc1cc(C(=O)N2CCC3(CC2)OCCO3)ccc1Sc1ccc(F)cc1	-1.6	-2	8%	6	/
O=C(Nn1cnc2ccccc2c1=O)c1ccc(Cl)c([N+](=O)[O-])c1	-2.6	-2	/	/	/
CC12CCC3C(CCC4N(CCO)CCC34C)C1CCC2O (centres undefined)	0.0	-12	/	/	/
COc1ccccc1OCCC(=O)OCC(=O)Nc1cccc(Br)c1	6.2	2	-1%	3	-21
COc1ccc(-c2ccc(CCC(=O)O)n2C(C)C)cc1	-24	8	4%	6	3
CCOC(=O)C1CCN(C(C)C(=O)c2c(C)[nH]c3cc(C)ccc23)CC1 (centres undefined)	2.6	-6	0%	-29	-5
COc1ccccc1C(=O)NC(=O)COC(=O)c1nc(Cl)ccc1Cl	-3.5	-8	/	/	/

Assay outcomes: PubChem BioAssay, several laboratories

These rows are one share of the data (hit frequency here may not be typical).
